Compound activity (PubChem BioAssay)
2A firefly: FMDV 2A StopGo reporter, firefly signal; HEK cells with a luciferase reporter of 2A StopGo recoding; Potency, µM (series often up to 57.5 µM), for inactives: at the highest dose signal change, negative = less light; 0.23% of 120,000 active; active = well fitted falling curve with a large enough effect; inconclusive = small, poorly fitted or top-dose-only effect; inactive = no such curve, though single readings can be large or run the other way; note: nearly all actives have a fitted effect of over 60% in size; overnight with compound
2A Renilla: lowers the Renilla signal of an FMDV 2A StopGo reporter; Potency, µM (top dose mostly 57.5 µM), inactives show at the top dose signal change, negative = less light; AID 1745857; 0.32% of 120,000 active; HEK cells with a luciferase reporter of 2A StopGo recoding; active means well fitted falling curve with a large enough effect; inconclusive means small, poorly fitted or top-dose-only effect; inactive means no such curve, though single readings can be large or run the other way; note: nearly all actives have a fitted effect of over 55% in size; overnight with compound
* marks the source's active call; other numbers are inactive results; ? = inconclusive; & = joins results of further samples; [ ] = remark or other dose. % is set by controls: 0 for no effect and ±100 for the full control effect; potency is the fitted concentration of half-maximal effect. Rows are unselected; about 0.53% have a hit in one of these screens.

SMILES	2A firefly	2A Renilla
CC(=O)N/N=C(/C)c1ccc(NC(=O)C2CC2)cc1	?	?
CCOc1ccccc1NC(=O)c1cnn2c(C(F)F)cc(-c3ccccc3)nc12	-6%	0%
Cn1c(=O)c2c(nc(NCc3ccccc3)n2Cc2ccccc2Cl)n(C)c1=O	-2%	-4%
Cc1ccc2oc(C(=O)Nc3cccc(Oc4ccccc4)c3)cc(=O)c2c1	1%	-6%
O=C(Nc1c(NCc2ccccc2)c2ccccc2oc1=O)c1ccco1	18%	-11%
COc1ccc(NC(=O)N(Cc2nnc3n2CCCCC3)c2ccc(OC)c(Cl)c2)cc1	14%	8%
Cc1ccc(Cl)cc1N1CCN(C(=O)C2CCCN(S(=O)(=O)c3ccc(Br)s3)C2)CC1 (stereo not given)	-4%	17%
O=C(Nc1nccs1)c1sccc1-c1ccccc1	0%	25%
Cc1csc2nc(CCNS(=O)(=O)c3ccccc3)cn12	-7%	-22%
CCOc1ccc(NC(=O)Cn2c(=O)c(CNc3ccccc3)cc3cc4c(cc32)OCCO4)cc1	38%[activator]	-8%
Cc1ccc(C(=O)N(Cc2ccccn2)C2CC2)s1	-1%	16%
O=C(CSc1nc2ccccc2s1)Nc1cc(C(F)(F)F)cc(C(F)(F)F)c1	-12%	-27%
CCc1c(C)sc2c1CCN(Cc1ccccc1)C2c1ccccc1 (stereo not given)	?	13µM*
CCC(C)Nc1nc(-c2ccc(Cl)cc2)cs1 (stereo not given)	126%[activator]	-12%
CS(=O)(=O)c1ccccc1NC(=O)COc1ccccc1C(N)=O	-10%	-7%
Cc1cccc(C)c1NC(=O)COc1ccc(S(=O)(=O)N2CCCC2)cc1C(N)=O	0%	-4%
CN1CCN(C(C#N)c2ccc(O)cc2)CC1 (stereo not given)	3%	4%
CSCc1ccc(C(=O)Nc2ccc(C(F)(F)F)cc2)cc1	38%[activator]	?
CC1CCN(c2ccc(-c3cccc(NS(=O)(=O)c4cccs4)c3)nn2)CC1	137%[activator]	40%[activator]
Cc1sc2ncn(CC(=O)N(C)c3ccc(C(C)C)cc3)c(=O)c2c1S(=O)(=O)N1CCC(C)CC1	-14%	1%
Cc1cc(Nc2cccc(Cl)c2)nc2ccc(NC(=O)Cc3cccc(C(F)(F)F)c3)cc12	?	?
Cc1c(Cl)cccc1S(=O)(=O)N(Cc1nccn1C)C1CC1	-7%	-1%
CCNC(=S)NCc1ccccc1	13%	19%
COc1ccc(-c2ccc(CCC(=O)O)n2-c2ccccc2O)cc1	124%[activator]	41%[activator]
CNC(=O)c1ccc(-c2nc(CN3CCN(C(=O)Nc4ccccc4OC)CC3)c(C)o2)cc1	0%	11%

The listing continues.
SMILES	2A firefly	2A Renilla
CNC(=O)c1ccc(/C=C/C(=O)c2ccc(OCCC(C)C)cc2)cc1	0%	-13%[1.06 µM]
COc1ccc(-c2nc(CS(=O)(=O)CC(=O)NCCCN3CCOCC3)c(C)o2)cc1	7%	-8%
Cc1ccc(NC(=O)c2nccnc2N)cc1C	120%[activator]	5%
Cc1c(NC(=O)c2sc3ccccc3c2Cl)cccc1-c1nc2ccccc2o1	-8%	-4%
Cc1nc2ccc(C(=O)OCC(=O)N(C)c3ccccc3)cc2nc1C	-2%	-9%
Cc1ccc(NC(=O)CCc2c(C)c3ccc(C)cc3oc2=O)c(F)c1	11%	1%
CCc1ccc2c(CN(C)CCOc3cccc(C)c3)cc(=O)oc2c1	-5%	-9%
COP(=O)(OC)c1nc(-c2cccc([N+](=O)[O-])c2)oc1NCc1ccc(F)cc1	-13%	8%
CCCSc1nc2c(c(=O)[nH]1)C(c1ccc(F)cc1F)CC(=O)N2 (stereo not given)	8%	-2%
CC1CCCC(NC(=O)c2c(F)cccc2F)C1C (stereo not given)	124%[activator]	19%
CCOC(=O)c1scc(-c2ccccc2)c1S(=O)(=O)Nc1cccc(CC)c1	2%	197%[activator]
Cc1ccc([N+](=O)[O-])cc1N=C/C(Br)=C/c1ccccc1	?	?
Cn1cc(-c2cc3n(n2)CCCN3C(=O)CCC(=O)N2CCCC2)c2ccccc21	27%	13%
CCOC(=O)c1c(Nc2ccc(O)cc2)nnc(-c2ccccc2)c1-c1ccccc1	0%	0%
Cc1nc2sc(C(N)=O)c(N)c2c(-c2ccc(Br)cc2)c1C(=O)Nc1ccc(Cl)cc1	-28%	-9%
CCCC(C)C(=O)Nc1nnc(Cc2ccc(OC)c(OC)c2)s1 (stereo not given)	8%	3%
COc1ccc(-c2ccc(C#N)c(SCC(=O)Nc3cc(OC)ccc3OC)n2)cc1	8%	-4%
CC(C)c1ccc(NC(=O)CN(c2ccnn2C(C)C)S(=O)(=O)c2ccccc2)cc1	-17%	20%
O=C(Nc1nnc(Cc2ccccc2)s1)c1nn(Cc2ccccc2)c(=O)c2ccccc12	16%	198%[activator]
O=C(NC(O)C(Cl)(Cl)Cl)c1ccco1 (stereo not given)	18%	6%
COc1ccc(NC(=O)c2c(Cl)cccc2Cl)cc1	10%	1%
CC1Sc2ccc(S(=O)(=O)CCC(=O)NC3CCCCCCC3)cc2NC1=O (stereo not given)	-18%	-27%
CC(Sc1ccc2ccccc2n1)C(=O)NC(N)=O (stereo not given)	58%[activator]	-3%
COc1ccc(NC(=O)Cn2c(=O)n(-c3ccc(OC)cc3)c(=O)c3ccc(C(=O)NCc4ccc(C)cc4)cc32)cc1	-17%	-13%
COc1ccc(-n2ncc(C(=O)N3CCN(C4CCCCC4)CC3)c2C2CCN(C(=O)OC(C)(C)C)CC2)cc1	-24%	-14%

The list continues:
SMILES	2A firefly	2A Renilla
COc1nc2ccccc2nc1N1CCC(C(=O)Nc2ccc(F)cc2)CC1	-3%	-8%
Cc1ccc(-c2csc(/C=C/c3ccc(C(F)(F)F)cc3)n2)cc1	-9%	-1%
COc1ccc(-c2cc(C(=O)Oc3ccccc3)c3cc(C)ccc3n2)cc1	117%[activator]	112%[activator]
Nc1c(C(=O)Nc2ccccc2)sc2nc3c(cc12)CN(Cc1ccccc1)CC3	50%[activator]	10%
COc1cc(C2CC(=O)Nc3c2c(C)nn3-c2ccc(Cl)nn2)cc(OC)c1OC (stereo not given)	-16%	-13%
C#CCOc1ccc(-c2nnc(Nc3cccc(C)c3)c3ccccc23)cc1	-5%	-11%
Cc1cc(C)cc(NS(=O)(=O)c2ccc(-n3cccn3)cc2)c1	-14%	329%[activator]
CSC(C)C(=O)Nc1cccc(Cl)c1 (stereo not given)	-3%	3%
Cc1cccc(NC2=NS(=O)(=O)c3ccccc32)c1C	-2%	12%
CCS(=O)(=O)c1ncc(N(Cc2cccc(F)c2)Cc2ccco2)c(C(=O)Nc2ccccc2Cl)n1	1%	-9%
O=C(C1CCCO1)N1CCN(Cc2coc(-c3ccc(Cl)cc3)n2)CC1 (stereo not given)	?	?
COc1ccc(S(=O)(=O)N(CCc2ccccc2)CC(=O)Nc2ccc(C)c(C)c2)cc1OC	?	-6%
CC(C)c1ccc(CCCN)cc1	-36%	1%
CCOc1c(/C=N/O)cccc1OC	-1%	-3%
Cc1ccc(-c2cc(C(=O)Nc3c(C(=O)c4ccccc4)oc4ccccc34)no2)cc1F	-14%	-6%
CCN1CCN(C(=O)c2cn(Cc3ccccc3)nc2-c2ccc(C)c(C)c2)CC1	5%	37%[activator]
Cc1ccc(C(=O)NCCCN(C)CC(F)(F)F)cn1	0%	0%
COc1ccc(-c2cc(=O)n3[nH]c(C(F)(F)F)nc3n2)cc1	0%	-9%
CCCNC(=O)c1ccc2c(c1)NC(=O)CS2	6%	6%
COc1ccc(NC(=O)c2ccco2)cc1NC(=O)c1ccc(C)c(C)c1	-9%	-6%
COc1ccc(-c2nc(NC(=O)c3cc(F)cc(F)c3)n[nH]2)cc1OC	27%	25%
CCCN(C(=O)NCc1noc2ccc(C)cc12)c1ccc(Cl)c(Cl)c1	-9%	13%
Cn1c(SCC(=O)Nc2nc3ccccc3s2)ncc(C(=O)Nc2ccc(F)cc2)c1=O	8%	-9%
O=C(c1cc(Cl)ccc1Cl)N1CCC(CN2CCOCC2)CC1	-1%	-6%
CCN(CC)c1ccc(C(=O)NCc2ccco2)cc1	157%[activator]	31%

(more compounds)
SMILES	2A firefly	2A Renilla
Nc1c(-c2nc(-c3ccc(Cl)cc3)no2)nnn1-c1ccc(C(F)(F)F)c(Cl)c1	-9%	-7%
CCOc1ccc(NC(=O)c2c(NC(=O)c3ccccc3F)sc3c2CCC3)cc1	-12%	-11%
CCCN1CCc2nc(N3CCN(C)CC3)ncc2C1	-11%	-17%
Cc1ccc(SCc2ccc(C(=O)Nc3ccccc3C(C)C)cc2)cc1	-7%	-2%
CC(C)CCC(C)NC(=O)c1ccc(CN2CCCC2=O)cc1 (stereo not given)	97%[activator]	4%
COc1ccc(OC)c(CCNC(=O)CCn2c(=O)c3cccn3c3ccc(F)cc32)c1	-9%	1%
C=CCNC(=O)NC(=O)CN1CCCCC1	8%	12%
COc1cc(/C=N/O)c(Br)c(Br)c1O	22%	1%
Cc1ccc(-c2nc(Cn3cnc4ccsc4c3=O)co2)cc1	0%	12%
COc1cc(CNC(=O)c2nccnc2N)ccc1OCc1ccncc1	22µM*	10µM*
COc1ccc(NC(=O)c2cc3cc(C)ccc3[nH]2)cc1	118%&66%[activator]	23%&14%
O=C(Nc1ccccc1Cl)c1nc2ccccc2nc1N1CCCCC1	-3%	15%
CC1(C)CC(NC(=O)c2cc3ccccc3cc2NC(=O)C2CC2)CC(C)(C)N1	-16%	-3%
COc1ccc(-c2nn(-c3ccccc3)cc2C(=O)NCC(C)(C)N2CCOCC2)cc1OC	35%[activator]	1%
Cc1ccc(Nc2ncc(C(=O)N3CCN(c4ccc(F)cc4)CC3)c3ccccc23)cc1Cl	-24%	-10%
Cc1cccc(OCCSC(C)C(=O)NC(C)(C)C)c1 (stereo not given)	7%	-3%
COC(=O)C1=C(c2ccccc2)c2ccccc2S(=O)(=O)N1CC(=O)Nc1cc(C)ccc1C	8%	3%
N#Cc1ccc(CSc2nc3c(c(=O)[nH]2)CCCC3)cc1	8%	3%
O=Cc1cccn1-c1ccc(F)c(Cl)c1	-2%	-15%
COc1ccc(C(C(=O)NCc2ccccc2)N(C(=O)Cn2nnc3ccccc32)c2cccc(OC)c2)cc1 (stereo not given)	-16%	77%[activator]
CC1CCN(S(=O)(=O)c2cc(C(=O)NCc3ccc(F)cc3)n(C)c2)CC1	-5%	14%
Cc1ccc2ccc(Cl)cc2n1	3%[11.5 µM]	-11%
C=CCn1c(N2CCOCC2)nc2c1c(=O)[nH]c(=O)n2C	1%	-2%
Cc1ccc2oc(C(=O)Nc3nonc3-c3cccs3)c(C)c2c1	36%[activator]	20%
COC(=O)c1ccc(C)c(NC(=O)c2cc(=O)c3cc(C)ccc3o2)c1	0%	-1%

Additional entries.
SMILES	2A firefly	2A Renilla
COc1ccccc1C(c1ccc(C)o1)c1ccc(C)o1	8%	12%
CCc1ccc(NC(=O)c2ccc3c(c2)N(Cc2ccc(C)cc2)CCS3)cc1	111%[activator]	-10%
COC(=O)c1ccc(NC(=O)CCc2c(C)nc3c(c2C)c(=O)n(C)c(=O)n3C)cc1	-30%	-19%
O=C(CCc1ncc(-c2ccccc2Cl)o1)N1CCN(S(=O)(=O)c2ccc(F)cc2)CC1	-8%	-14%
CC(=O)c1ccc(NC(=O)NCCCN(C)CC(F)(F)F)cc1	56%[activator]	6%
Cc1ccc(NC(NC(=O)C(C)(C)C)C(Cl)(Cl)Cl)cc1 (stereo not given)	3%	12%
Cc1cc(-c2ccc(S(=O)(=O)Nc3ccccc3F)s2)on1	3%	0%
COC(=O)c1cncc(C(=O)OC)c1	6%	5%
CC(C)c1ccc(C2/C(=C(\O)c3ccc4c(c3)OCCO4)C(=O)C(=O)N2c2nccs2)cc1 (stereo not given)	152%[activator]	5%
Clc1ccc2nc(-c3cccs3)c(Nc3ccc4c(c3)OCCO4)n2c1	-1%	2%

A section from further up, for reference:
SMILES	2A firefly	2A Renilla
COC(=O)C1=C(c2ccccc2)c2ccccc2S(=O)(=O)N1CC(=O)Nc1cc(C)ccc1C	8%	3%
N#Cc1ccc(CSc2nc3c(c(=O)[nH]2)CCCC3)cc1	8%	3%
O=Cc1cccn1-c1ccc(F)c(Cl)c1	-2%	-15%
COc1ccc(C(C(=O)NCc2ccccc2)N(C(=O)Cn2nnc3ccccc32)c2cccc(OC)c2)cc1 (stereo not given)	-16%	77%[activator]
CC1CCN(S(=O)(=O)c2cc(C(=O)NCc3ccc(F)cc3)n(C)c2)CC1	-5%	14%
Cc1ccc2ccc(Cl)cc2n1	3%[11.5 µM]	-11%
C=CCn1c(N2CCOCC2)nc2c1c(=O)[nH]c(=O)n2C	1%	-2%
Cc1ccc2oc(C(=O)Nc3nonc3-c3cccs3)c(C)c2c1	36%[activator]	20%
COC(=O)c1ccc(C)c(NC(=O)c2cc(=O)c3cc(C)ccc3o2)c1	0%	-1%
COc1ccccc1C(c1ccc(C)o1)c1ccc(C)o1	8%	12%
CCc1ccc(NC(=O)c2ccc3c(c2)N(Cc2ccc(C)cc2)CCS3)cc1	111%[activator]	-10%
COC(=O)c1ccc(NC(=O)CCc2c(C)nc3c(c2C)c(=O)n(C)c(=O)n3C)cc1	-30%	-19%
O=C(CCc1ncc(-c2ccccc2Cl)o1)N1CCN(S(=O)(=O)c2ccc(F)cc2)CC1	-8%	-14%
CC(=O)c1ccc(NC(=O)NCCCN(C)CC(F)(F)F)cc1	56%[activator]	6%
Cc1ccc(NC(NC(=O)C(C)(C)C)C(Cl)(Cl)Cl)cc1 (stereo not given)	3%	12%
Cc1cc(-c2ccc(S(=O)(=O)Nc3ccccc3F)s2)on1	3%	0%
COC(=O)c1cncc(C(=O)OC)c1	6%	5%
CC(C)c1ccc(C2/C(=C(\O)c3ccc4c(c3)OCCO4)C(=O)C(=O)N2c2nccs2)cc1 (stereo not given)	152%[activator]	5%
Clc1ccc2nc(-c3cccs3)c(Nc3ccc4c(c3)OCCO4)n2c1	-1%	2%
